HIV TAR-Tat: TAR RNA-Tat peptide displacers, HIV-1, primary screen, biochemical, FRET, FAM/TAMRA-labeled Tat. hit rate 0.6% among 100,000. z-score (test concentration not listed). HIV-1 TAR RNA, Tat peptide displacement FRET; hits give high values. AID 1259389, 2018;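 further: score is relative to mean and SD of negative controls; some compounds called inactive have numbers as strong as hits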
CDC25B-CDK2 inh: primary biochemical HTRF screen for blockers of M-phase inducer phosphatase 2 binding to CDK2/cyclin A; HTRF CDC25B-CDK2/CyclinA binding, anti-His/anti-Flag; hits give high values; z-score (test concentration not listed); hit rate 0.72% among 94,000; AID 1259370, 2018; P30305+P24941;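 further: score is relative to mean and SD of negative controls; strong numbers were not always called active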
* hit, by the source's call; · = no result given.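 How the source made its calls: active means z-score from 3 up in half or more of its runs; inactive means the rest.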

Each structure is followed by: HIV TAR-Tat, CDC25B-CDK2 inh
O=C(CCNC(=O)Cn1ccc2ccccc2c1=O)NCCN1CCc2ccccc2C1
    ·, -0.22
Cn1cc(Cl)c(C(=O)NC2CCCC2)n1
    ·, -1.4
CC(=O)Nc1nc2ccc(NC(=O)c3[nH]nc4c3CCc3ccccc3-4)cc2s1
    -0.23, ·
CC(NC(=O)C(=O)NCc1ccco1)C(c1cccs1)N1CCOCC1 (stereo not drawn)
    -0.71, -1.7
Cc1sc2nc(COC(=O)c3ccccc3)[nH]c(=O)c2c1C
    0.9, -1
O=C(CSc1nc(-c2cccc(Cl)c2)nc2cc(=O)[nH]n12)NCCCc1ccccc1
    0.41, ·
CCCCCc1c(C)nn(-c2nc(CC(=O)Nc3nc(C)cs3)cs2)c1C
    -1.3, -1.6
Cc1cccn2c(=O)cc(COc3ccc(NC(=O)c4ccco4)cc3)nc12
    -1.1, ·
CCOC(=O)c1c(C)csc1NC(=O)CSc1ccc(Cl)cc1
    ·, -3.7
O=C(CCCO)CC(=O)c1ccc(F)cc1
    ·, 1
COCC(=O)N[C@@H](C(=O)N1NCCC[C@H]1C(=O)N[C@@H](Cc1ccccc1)[C@@H](O)[C@H](C)C(=O)N[C@H]1CCN(C(N)=O)C1=O)[C@H](O)C(C)C
    3.4, ·
O=C(CN1C(=O)COc2ccc(S(=O)(=O)N3CCOCC3)cc21)N1CCCCC1
    0.42, 0.62
Cn1cc(S(=O)(=O)N2CCCC2)cc1C(=O)NC(C)(C)C
    0.66, ·
COc1ccc2nc(SCC(O)c3ccc(Br)cc3)[nH]c2c1 (stereo not drawn)
    -0.73, 0
CCCNCC(O)COc1ccccc1C(=O)CCc1ccccc1 (stereo not drawn)
    1.7, -2
Cn1nc(C(F)(F)F)c(-c2ccccc2)c1NC(=O)c1ccccc1
    ·, -0.84
O=C(C1CCCN(c2nc3cccnc3s2)C1)N1CCN(c2ccccn2)CC1 (stereo not drawn)
    -0.67, ·
C=CCn1nnc(NCc2cccc3ccccc23)n1
    0.94, ·
O=[N+]([O-])c1ccc(Sc2nc3ccccc3[nH]2)c(Cl)c1
    ·, -1.1
COc1ccc(Cl)cc1NC(=O)COCc1cc(-c2cccs2)on1
    0.2, ·

An excerpt from above in order of molar mass, falling.
Each structure is followed by: HIV TAR-Tat, CDC25B-CDK2 inh
CCCNCC(O)COc1ccccc1C(=O)CCc1ccccc1 (stereo not drawn)
    1.7, -2
Cn1cc(S(=O)(=O)N2CCCC2)cc1C(=O)NC(C)(C)C
    0.66, ·
O=[N+]([O-])c1ccc(Sc2nc3ccccc3[nH]2)c(Cl)c1
    ·, -1.1
C=CCn1nnc(NCc2cccc3ccccc23)n1
    0.94, ·

Later entries:
Each structure is followed by: HIV TAR-Tat, CDC25B-CDK2 inh
CC(=O)Nc1ccc(S(=O)(=O)Nc2ccc(Oc3c(Cl)cccc3Cl)nc2)cc1
    ·, 0.54
COC(=O)c1cccc(Cn2cnc([N+](=O)[O-])n2)c1
    3.1, 0.6
COCC(C)NC(=O)c1cc(C)no1 (stereo not drawn)
    -1, -1.4
CCCc1nn2c(=O)cc(COC(=O)c3ccccc3F)nc2s1
    0.36, ·
NC(=O)NCc1ccccn1
    ·, -2.3
CCc1c(C)nc2ncnn2c1Nc1cccc(F)c1
    3, -1.3
Cc1nn(CC(=O)NCCC(C)C)c(=O)c2cccn12
    1.9, -1.5
Cn1c(Cn2c(=O)sc3ccccc32)nnc1SCc1ccc(F)cc1
    ·, -1.3
O=C(Nc1nnc(S(=O)(=O)N2CCc3ccccc32)s1)c1cccc(Br)c1
    1.7, -0.67
CCc1nn(CC(=O)NC(C)c2ccc3c(c2)OCCO3)c(=O)c2cc3sc(C)cc3n12 (stereo not drawn)
    -0.63, -7
O=C(Cc1noc2ccccc12)Nc1ccccc1Cl
    1.2, -1.2
Clc1cccc(N2CCN(c3c4c(nc5ncnn35)CCCC4)CC2)c1
    -0.58, ·
COc1ccc(CN[C@H]2CS(=O)(=O)C[C@@H]2S(=O)(=O)c2ccccc2)cc1OC
    -0.51, -0.76
CC1(C)CC(=O)C2=C(C1)Nc1ncnn1C2c1ccc(O)cc1 (stereo not drawn)
    0.19, 1.3
O=S(=O)(NCc1ccco1)c1ccc2[nH]c3c(c2c1)CCCC3
    0.11, ·
CN1CCN(C(=O)C(=O)NCc2n[nH]c(=O)c3ccccc23)CC1
    1.9, ·
N#C/C(=C\c1ccc(Cl)cc1Cl)C(=O)O
    ·, 1.2
O=C1NCCN1Cc1ccccc1Cl
    0.78, ·
c1ccc(-c2nn3c4cc(N5CCOCC5)ccc4nc3c3ccccc23)cc1
    -4.5, 5.2
O=C1C2C3C=CC(C3)C2C(=O)N1c1cc(Cl)cc(Cl)c1 (stereo not drawn)
    ·, 0.15
CCOC(=O)Nc1ccc2c(c1)N(C(=O)NC)c1ccccc1CC2
    1.8, -1
CCOC(=O)C1=C(C)NC2=C(C(=O)CC(C)(C)C2)C1c1ccc(Cl)cc1Cl (stereo not drawn)
    1.3, ·
COc1cc(NC2=NS(=O)(=O)C(c3ccccc3)=C2C)cc(OC)c1
    -1.7, -5
CCOc1ccc(NC(=O)C2C3C=CC4(O3)C2C(=O)N(C2CC2)C4C(=O)NC2CCCCC2C)cc1 (stereo not drawn)
    -0.22, -0.1
CCOc1cc(-c2cc(=O)c3ccccc3o2)ccc1O
    2, -0.98
CCOC(=O)c1[nH]c(C)c(C(=O)NC)c1C
    1.4, -0.92
CCOC(=O)c1c(C)oc2nc(C)nc(N3CCCC(C(=O)OCC)C3)c12 (stereo not drawn)
    1.6, ·
CC1CCC(NC(=O)CC(C)S(=O)(=O)c2ccc3c(c2)NC(=O)CS3)CC1 (stereo not drawn)
    -4, ·
COc1ccc(OC(=O)N2CCOCC2)cc1
    1.8, 0.09
O=C(CN1C(=O)c2ccccc2Sc2ncccc21)NC1CC1
    2, ·
Oc1ccc(-n2cncn2)cc1
    ·, -1.1
O=C(Nc1cccc(C(F)(F)F)c1)Nc1cnn2c(C(F)(F)F)cc(C(F)(F)F)nc12
    ·, -3.4
CCN(CC)C(=O)c1ccc(O)c(OC)c1
    ·, -2.7
COCCOC(=O)C1=C(C)Nc2nc3ccccc3n2C1c1ccccc1Cl (stereo not drawn)
    1.7, 1.9
COCCCNC(=O)c1ccc(-n2ccc3ccccc32)s1
    0.72, ·
CC(C)Cn1cc(NC(=O)N(C)c2ccccc2)c2ccccc2c1=O
    -0.25, ·
Cc1cn2c(=O)cc(CSc3nnc(-c4cccc(F)c4)n3C)nc2s1
    3.8, ·
CCOc1cc(=O)oc2ccccc12
    ·, -2.7
C=CCSc1nnc2n(-c3ccccc3)c(=O)c3c(C)c(C)sc3n12
    ·, -0.96
CC1CC(C)CN(S(=O)(=O)c2ccc3c(c2)oc(=O)n3CC(=O)NC(C)(C)C)C1 (stereo not drawn)
    ·, -2.3
O=C(Cc1cccs1)Nc1ccc(N2CCOCC2)c(Cl)c1
    1.8, -1.7
Cc1ccnc(NC(=O)CCc2c(C)nc3ncnn3c2C)c1
    ·, 0.06
C=CCN1C(=O)C2(c3ccccc31)c1c(oc3ccc(C)cc3c1=O)C(=O)N2CCOC (stereo not drawn)
    1.2, 0.67
O=C(NC(=S)Nc1nc(-c2cccc([N+](=O)[O-])c2)cs1)c1ccccc1F
    ·, -3
COC(=O)C1=C2C(=O)NCCN2C(C(=O)Nc2ccc(Cl)cc2)CC1=O (stereo not drawn)
    -0.59, -1.7
Cc1nc(-c2ccc(C)c(S(=O)(=O)Nc3cccc(C)c3C)c2)cs1
    1.8, ·
CC1CC(=O)c2cnc(Nc3nc(-c4ccccc4)c4ccccc4n3)nc2C1 (stereo not drawn)
    1.2, -1.5
Cc1ncc(CO)c2c1Oc1nc(-c3ccccc3)nc(SCC(=O)N(C)c3ccccc3)c1C2
    2.2, ·
CCOC(=O)COc1ccc2oc(C)c(C(=O)OCCOC)c2c1
    0.18, -1.2
COc1ccc(CCNC2=NCCS2)cc1OC
    ·, -1.6

The last 2 compounds of the part before lead into the next.
Each structure is followed by: HIV TAR-Tat, CDC25B-CDK2 inh
CCOC(=O)COc1ccc2oc(C)c(C(=O)OCCOC)c2c1
    0.18, -1.2
COc1ccc(CCNC2=NCCS2)cc1OC
    ·, -1.6
Cc1ccc(C)c(Nc2c3c(nc4ncnn24)CCCC3)c1
    0.83, ·
CCCc1noc(-c2ccc(OC)c(OC)c2)n1
    1.2, -1.1
N#CSc1c(NC(=O)c2ccccc2)sc2c1CCCC2
    1.5, -11
O=C(CSc1nc2ncccc2[nH]1)Nc1ccc(Br)cc1F
    0.89, ·
O=C1COc2ccc(S(=O)(=O)Nc3cccc(Cl)c3)cc2N1
    0.71, ·
COC(=O)c1c(NC(=O)CCCC(=O)O)sc2c1CCC(C(C)(C)C)C2 (stereo not drawn)
    1.2, 0.47
CN(C)CCNS(=O)(=O)c1ccc2[nH]c(=O)[nH]c2c1
    -0.04, -0.01
CCOc1ccc(OCC)c(Nc2c(-c3ccc4c(c3)OCC(=O)N4)c(=O)c2=O)c1
    -1.2, ·
COc1ccc(-c2nc3ccccc3o2)cc1NC(=O)C(C)C
    ·, -1.2
CCC1CN(C(=O)NC2CCCC2)c2cc(C)ccc2O1 (stereo not drawn)
    1.1, ·
CCOC(=O)c1sc2nc3n(c(=O)c2c1C)CCCCC3
    0.35, 2.4
CCCCc1nc2oc(C(=O)c3ccccc3)c(N)c2c2c1COC(C)(C)C2
    2.8, -0.83
Cc1cc(NS(=O)(=O)c2ccc(Cl)s2)no1
    ·, -0.02
CC(C)OCCCNC(=O)C1=Cc2sc3c(c2CS1)CCCC3
    -0.54, ·
COc1ccc(S(=O)(=O)c2cnc3ccc(Cl)cc3c2N2CCN(C)CC2)cc1
    -0.94, -0.27
CC(C)(C)CC(=O)NC(C)(C)C
    ·, -0.91
Cc1cccc(-c2nc(-c3ccc4c(c3)Sc3ccccc3C(=O)N4C)no2)c1
    2.3, ·
O=C(Nc1nnc(S(=O)(=O)N2CCOCC2)s1)c1cccs1
    0.92, 0.35
COc1cccc(C2C(C(=O)OC3CCCC3)=C(C)NC3=C2C(=O)CC(c2ccccc2)C3)c1OC (stereo not drawn)
    2.3, -1.3
CC(=O)C(C(C)=O)c1cc(NS(=O)(=O)c2ccc(C)cc2)c2ccccc2c1O
    ·, 1.5
COC(=O)C1=C(C)NC2=C(C(=O)CC(c3ccc(OC)c(OC)c3)C2)C1c1ccc(OC)cc1OC (stereo not drawn)
    1.2, -0.3
COC(=O)c1sc2cccc(F)c2c1S(=O)(=O)N1CCN(c2cccc(Cl)c2)CC1
    0.41, ·
COc1ccc(Oc2ccc(NC(=O)Cc3cccs3)cn2)cc1
    ·, -0.32
COc1ccc2c(c1)c(NC(C)=O)c1n2CC(C)(C(=O)NC2CCCC2)N(CCN(C)C)C1=O (stereo not drawn)
    2.2, ·
Cc1nc(-c2csc(S(=O)(=O)Nc3ccc(F)c(Cl)c3)c2)no1
    0.67, ·
O=C(CCc1ccc(-c2ccc(F)cc2)o1)N1CCCC1
    1, ·
O=C(Cn1ncc2c3ccccc3n(Cc3ccccc3)c2c1=O)N1CCN(c2ncccn2)CC1
    -0.13, 0.27
c1ccc2c(c1)CC(N1CCCCC1)c1ccccc1N2 (stereo not drawn)
    ·, -1.6
CC(C)(C)c1cc(C(=O)Nc2nsc(-c3ccccc3)n2)cc(C(C)(C)C)c1
    ·, -1.1
O=C(NCc1ccccn1)c1ccc(N2CCc3ccccc32)s1
    -1.9, ·
O=C(CSc1nnc(N2CCOCC2)c2ccccc12)Nc1ccc2c(c1)OCO2
    2.2, -1
N#CCCn1nc(-c2ccccc2)cc1NC(=O)NC(=O)c1c(F)cccc1Cl
    ·, -1.3
Cc1ccc(C)c(N2CCN(Cc3csc(C)c3C)CC2)c1
    0.67, ·
COCCNc1nc(SCc2cc(F)cc3c2OCOC3)nc2ccccc12
    ·, -2.2
Cc1ccc(C(=O)CSc2n[nH]c(-c3ccncc3)n2)cc1
    -0.54, -0.17
O=C(CCCn1c(=O)c2cccn2c2ccccc21)NCc1ccco1
    2.7, ·
CN(C)S(=O)(=O)N1CCC(n2c(-c3ccccc3)nc3cccnc32)CC1
    0.06, ·
COc1ccc(C2=NC(c3ccncc3)=Nc3ccc(OC)cc3N2)cc1
    1.2, -0.69
CCc1cc2c3c([nH]c2cc1S(=O)(=O)Nc1cccnc1)CCCC3=O
    0.6, ·
FC(F)(F)c1cccc(Nc2nnc(-c3cccnc3)s2)c1
    ·, -1.2
Cn1c(SCc2ccccc2F)nc(=O)c2c1NC(=O)CC2c1cc(F)cc(F)c1 (stereo not drawn)
    1.1, -0.33
O=C(CC1CC(=O)Oc2ccccc21)Nc1nc2ccccc2s1 (stereo not drawn)
    -0.05, -1.3
O=S(=O)(Nc1cccc(-c2ccc(N3CCCCC3)nn2)c1)c1ccccc1
    0.88, ·
Cc1noc(C)c1CCSCc1cc(=O)n2c(C)csc2n1
    1.3, ·
CCOC(=O)C1CCN(C(=O)C2CCN(c3nnc(N4CCCCC4=O)s3)CC2)CC1
    2.4, ·
O=C(Cn1c(=O)oc2cc(S(=O)(=O)NC3CCCC3)ccc21)NCc1cccs1
    -0.99, -0.3
Cc1cc(NCc2ccccn2)n2nc(C(F)(F)F)c(-c3ccc(F)cc3)c2n1
    -0.04, -2.7
O=C(Cn1ncn2cccc2c1=O)NCc1ccc2c(c1)OCO2
    2, -1
CC(C)(C)c1ccc2c(c1)CN(c1ccc(F)cc1)CO2
    1.1, 0.2

High-throughput results from PubChem.
